VACV mCherry inh: inhibitors of vaccinia virus infection (mCherry reporter signal) | Potency, µM (series often up to 36.5 µM), for inactives: at the highest dose activity change, negative = inhibition, most hits filed as inhibitors | Vaccinia virus mCherry reporter infection, fluorescence; about a quarter of the inactives have no number | 0.63% of 310,000 active; active = well fitted inhibition curve with a large enough effect; inconclusive = small, poorly fitted or top-dose-only effect; inactive = no such curve, though single readings can be large or run the other way; tested in A549 cells; note: nearly all actives have a fitted effect of over 35% in size; inactives centre near -10
Vaccinia Venus: vaccinia inhibition (Venus reporter) | Vaccinia virus Venus reporter expression, fluorescence | Potency, µM (doses to about 36.5 µM), without a hit: at the top dose activity change, negative = inhibition, hits mostly inhibitors | 0.46% of 330,000 active | AID 720580; active means well fitted inhibition curve with a large enough effect; inconclusive means small, poorly fitted or top-dose-only effect; inactive means no such curve, though single readings can be large or run the other way; tested in A549 cells; note: nearly all actives have a fitted effect of over 30% in size; inactives centre near -10
* marks the source's active call; other numbers are inactive results; i = inactive; ? = inconclusive; / = not tested or not shown; & = joins results of further samples; [ ] = another dose, or the depositor's remark. % is set by controls: 0 for no effect and ±100 for the full control effect; potency is the fitted concentration of half-maximal effect.

compound | VACV mCherry inh | Vaccinia Venus
CC(=O)Nc1ccc(C(=O)Nc2cc(S(=O)(=O)N3CCOCC3)ccc2N2CCOCC2)cc1 | -10.4% | -8.2%
CCCC(=O)OCC(=O)NCc1ccc(Cl)cc1 | 1.5% | -3.7%
COc1ccc(NC(=O)C2CC(=O)n3cnnc3S2)cc1 (stereo not given) | -4.5% | -10.3%
CCOC(=O)c1c(-c2ccc(OC)cc2)csc1NC(=O)COc1ccc2c(C)cc(=O)oc2c1 | -9.8% | -1.0%
COc1ccc(N2CCN(C(=O)c3ccc4c(c3)CCN4S(=O)(=O)c3ccccc3)CC2)cc1 | -7.5% | -18.9%
O=C1CN(C(=O)COC(=O)c2ccc([N+](=O)[O-])s2)c2ccccc2N1 | ? | ?
COc1cc(Sc2ccc(C)cc2)c(OC)cc1N | i | -8.8%
COc1ccc2c(c1)Cc1sc(NC(=O)c3ccccc3C)nc1-2 | ? | -26.4%
COc1ccc(C(=O)c2cn[nH]c2-c2ccc(C)cc2O)cc1 | ? | 6.6%
CCOc1ccc(N2CC(C(=O)NCc3ccc(F)cc3)CC2=O)cc1 (stereo not given) | -8.5% | -7.3%
N#CCC(=O)Nc1ccc(C(=O)OCC(=O)NC2CCCc3ccccc32)cc1 (stereo not given) | -2.9% | 6.4%
O=C(NCCSc1ncc(-c2ccc(F)cc2)[nH]1)c1ccc2c(c1)OCO2 | -14.9% | -9.6%
COc1cccc(C(=O)N(Cc2cc3cc4c(cc3nc2N(C)C)OCO4)CC2CCCO2)c1 (stereo not given) | 8.4% | 3.4%
O=C1COc2ccc(C(=O)CSc3nnc(Cc4ccccc4)o3)cc2N1 | -6.9% | -18.0%
COc1ccc2ccccc2c1CNc1nnnn1C | 2.7% | 0.0%
Cc1nn(-c2cccc(Cl)c2)nc1C(=O)O | -1.7% | 1.4%
C=CCSC1=N/C(=C\c2ccc(C)o2)C(=O)S1 | ? | 1.3%
O=C(NCCc1ccccc1)C(=O)NCC1OCCN1S(=O)(=O)c1cccs1 (stereo not given) | -10.4% | -22.0%
COc1ccc(CCNC(=O)C2CC(=O)N(c3ccc(C)cc3)C2)cc1OC (stereo not given) | -3.4% | -12.9%
CN(Cc1ccncc1)C(=O)[C@@H]1CCCN1C(=O)[C@@H]1CCCN1 | -2.8% | -6.9%
CCOC(=O)C(C)Oc1ncnc2cccc(F)c12 (stereo not given) | i | -1.9%
CN1CCN(C2CN(Cc3cn(Cc4cccc(C(F)(F)F)c4)nn3)S(=O)(=O)C2)CC1 (stereo not given) | -1.9% | 5.0%
CNC(=O)c1ccsc1NC(=O)C1CCN(S(=O)(=O)c2cccs2)CC1 | i | -9.3%
Cc1nnc(SCC(=O)N(C)C2CCS(=O)(=O)C2)n1Cc1ccccc1 (stereo not given) | -1.0% | -12.5%
CCOC(=O)c1[nH]c2ccc(OC)cc2c1NC(=O)c1nonc1C | / | ?
CC(C)=CCC/C(C)=C/C(=O)O | i | 3.0%
O=S(=O)(c1cccc2ccccc12)N1CCC2CC1c1cc(-c3ccc4c(c3)OCO4)ccc12 (stereo not given) | 11.3% | -1.1%
Cc1ccc(C(=O)Nc2cccc(C(F)(F)F)c2)cc1NC(=O)c1[nH]cnc1C(N)=O | i | -4.9%
CN1CCN(NC(=O)c2ccc(Cl)cc2Cl)CC1 | i | -14.7%
FC(F)(F)c1ccccc1Nc1nccs1 | / | -15.1%
CN(C)c1ccc(/C=N/N=C/c2ccccc2O)cc1 | i | -12.4%
Cc1ccc(N2C(=O)c3ccccc3C2Nc2cccnc2)nc1 (stereo not given) | 31.2%[activator] | -9.2%
CC1CCN(S(=O)(=O)c2ccc(NC(=O)CN3CCCC(C)C3)cc2)CC1 (stereo not given) | -13.6% | -23.6%
CC1(C)CC(=O)c2sc(NS(=O)(=O)c3ccc(F)cc3)nc2C1 | -1.6% | -9.3%
CCCCC(=O)NNC(=S)NC(=O)C(c1ccccc1)c1ccccc1 | ? | -23.1%
O=C(NCc1ccc(Cl)cc1)c1cc2ccc3cccnc3c2[nH]1 | -4.3% | -4.5%
Cc1ccccc1COC(=O)CNC(=O)c1sc2ccccc2c1Cl | -7.3% | -6.4%
CCCC(C(=O)NCc1ccco1)N(CC1CCCO1)C(=O)CNS(=O)(=O)c1ccc(F)cc1 (stereo not given) | -19.8% | -7.4%
COc1ccc(C(C(=O)NC(C)(C)C)N(Cc2ccc(F)cc2)C(=O)CCC(=O)Nc2cc(C)on2)cc1 (stereo not given) | -6.7% | -10.7%
CCCNC(=S)N1CCN(CC)CC1 | i | -12.5%
Cc1ccc(S(=O)(=O)N2C[C@H]3C(=O)C[C@@H](c4ccccc4)N(S(=O)(=O)c4ccc(C)cc4)[C@H]3C[C@H]2c2ccccc2Cl)cc1 | 12.2% | -13.9%
COc1ccc(OCCn2c(NC(=O)c3ccc(OC)cc3)nc3ccccc32)cc1 | -8.6% | 6.7%
Cc1cc(C)c(NC(=O)CS(=O)CC(=O)NCC2CCCO2)c(C)c1 (stereo not given) | -14.5% | -9.3%
CCN(CC)S(=O)(=O)c1ccc(C)c(NC(=S)N2CCN(c3ccccn3)CC2)c1 | i | -7.0%
COc1ccc(Cc2nc3ccc(C(=O)N4CCCC4)cc3o2)cc1OC | -8.1% | -13.2%
Cc1ccc(S(=O)(=O)CCC(=O)OCCOc2ccc(Br)cc2)cc1 | -7.4% | -14.1%
CCc1cc(C(=O)NCC(c2cccs2)N2CCOCC2)sc1C (stereo not given) | -12.6% | -25.9%
COc1ccc(CNC(=O)C2CCN(C(=O)c3ccc(-c4ccccc4)cc3)CC2)cc1 | -1.6% | -16.8%
COc1ccc(/C=C(\C#N)C(=O)OCC(=O)NCc2ccccc2Cl)cc1 | i | 0.2%
CCN1C[C@@]2(C)CC[C@@H](OC)[C@@]34C2C(O)[C@@]2(OCO[C@]25CC(OC)C2C[C@@]3(O)C5C2O)C14 (stereo not given in full) | i | -11.8%

(cont.)
compound | VACV mCherry inh | Vaccinia Venus
COc1ccc(C(=O)Nc2ccccc2C(=O)N2CCOCC2)cc1OC | i | -8.3%
CCCc1cc(CN(C)C(=O)c2ccc(OC3CCN(C(C)=O)CC3)c(OC)c2)[nH]n1 | i | -5.0%
NC1=NCCN1CC(=O)O | -13.3% | -7.8%
O=C1CN(C(=O)C2CCCC2)CCN1 | -10.1% | -1.5%
Cn1c(CC(=O)Nc2ccccc2)n[nH]c1=S | i | -2.7%
CN(C)C(=O)COC(=O)c1cccnc1Nc1ccccc1F | -7.2% | -4.1%
Cc1occc1C(=O)Nc1c(F)c(F)c(F)c(F)c1F | i | -4.7%
CC(C)(C)NC(=O)C[C@H]1C[C@H](C(=O)N2CCCCC2)[C@@]2(C)c3[nH]c4ccc(Cl)cc4c3CCN2C1=O | i | ?
O=C(NCc1nnc(SCC(=O)N2CCCCC2)o1)c1c(F)cccc1Cl | i | -4.0%
CC(C(=O)N1CCCCCC1)c1ccc([N+](=O)[O-])cc1 (stereo not given) | i | -14.2%
COc1ccc(Cl)cc1NC(=O)CSc1sc2c(O)cc(=O)[nH]c2c1C#N | -14.6% | -6.8%
COc1ccc(N2C(=O)CC2(C#N)c2ccc(OCc3ccccc3)cc2)cc1 (stereo not given) | -1.0% | 2.7%
Cc1ccccc1OCCn1cc(C=O)c2ccccc21 | -9.7% | -28.3%
Cc1ccc(S(=O)(=O)N2CCN(c3ccc(C(=O)N4CCOCC4)cc3[N+](=O)[O-])CC2)cc1 | -12.9% | -26.7%
COc1ccc(-c2cc(CNC(=O)CN3CCN(C)CC3)on2)cc1 | / | 3.7%
CCN(CC)S(=O)(=O)c1ccc(Cl)c(NC(=O)c2ccncc2)c1 | -7.4% | -4.9%
COc1ccc(-c2nc(=S)c3c([nH]2)Oc2ccc(C)cc2C3)cc1O | -16.8% | -11.5%
COc1cc(OC)cc(N2C(=O)CC(N3CCC(C(=O)N4CCCCC4)CC3)C2=O)c1 (stereo not given) | -7.0% | -11.2%
COc1ccccc1CNC(=O)CCC(=O)N1CC2CCCN2c2ccccc21 (stereo not given) | i | -12.8%
Cc1occc1-c1nnc(SCC(=O)Nc2ccccc2N2CCCCC2)n1C | -27.6% | -16.5%
O=C(CN1C(=O)C(=O)N(Cc2ccco2)C1=O)c1c[nH]c2ccccc12 | -2.0%[7.34 µM] | -11.1%[7.34 µM]
COc1ccccc1Nc1nc(Cl)nc(Nc2ccccc2OC)n1 | 5.5% | -3.1%
COc1ccc(CNC(=O)CC2C[C@H](C(=O)N3CCCCC3)[C@@]3(C)c4[nH]c5ccccc5c4CCN3C2=O)cc1OC (stereo not given in full) | ? | -25.5%
CCN1CCN(C(=O)c2ccc(Cl)c(S(=O)(=O)N3CCCCC3)c2)CC1 | -12.0% | -6.7%
CC(CNC(=O)CN1C(=O)COc2ccc(S(=O)(=O)N3CCCCC3)cc21)c1ccccc1 (stereo not given) | -5.7%&-4.0% | -4.5%&-8.8%
COc1ccccc1CNC(=O)CCCn1nc(C)c2c(C)n(-c3ccc(C)cc3)nc2c1=O | -27.2% | -18.7%
COc1ccc(OC)c(NC(=O)COC(=O)/C=C/c2ccc(Cl)cc2)c1 | -14.5% | -6.2%
C(=C1c2ccccc2Oc2ccccc21)c1ccccc1 | -13.2% | -9.3%
Cc1cc2ccccc2c(=O)n1CC(=O)NCC1COc2ccccc2O1 (stereo not given) | -13.9% | -3.9%
Cc1cccc(N=N/C(=C\O)C(=O)c2cccs2)c1 | -20.2% | -12.9%
CSCCC(c1nnnn1-c1ccc2c(c1)OCCO2)N1CCC(n2c(=O)[nH]c3ccccc32)CC1 (stereo not given) | -10.7% | -23.4%
COC(=O)C1CCCCN1C(=O)c1cc(COc2cccc3cccnc23)on1 (stereo not given) | -2.6% | -10.3%
CN(C)CCCN(C(=O)COc1ccc(Cl)cc1)c1nc2cc3c(cc2s1)OCO3 | ? | ?
O=S1(=O)N(Cc2ccccc2)CCCN1Cc1ccc(F)cc1Cl | -5.0% | -8.5%
COc1ccc(S(=O)(=O)Nc2ccc3c(c2)sc(=O)n3C)cc1Cl | -15.8%[7.34 µM] | -9.6%[7.34 µM]
CCC(=O)c1ccc(OC(=O)c2cccs2)cc1 | -11.9% | -5.2%
Cc1cc(C)c2oc(-c3ccc(NC(=O)c4cc(Br)ccc4Cl)cc3)nc2c1 | -9.0% | -15.3%
CCN(CC)CCOc1ccc2nc(N(C)C)sc2c1 | 0.3% | 4.3%
CC(C)CN(C(=O)c1cc(Cl)nc2ccccc12)c1c(N)n(Cc2ccccc2)c(=O)[nH]c1=O | -25.8% | -11.9%
C=CCNC(=S)N/N=C(\C)c1cccc(OC)c1 | -0.4% | -27.1%
CN(C)CCCNc1ncnc2oc(-c3ccccc3)c(-c3ccccc3)c12 | -19.2% | ?
O=S1(=O)CC(N2CCN(CCO)CC2)CN1Cc1cn(Cc2cccc(C(F)(F)F)c2)nn1 (stereo not given) | -20.3% | -5.8%
Clc1ccc(-c2nnc(Sc3nc4ccccc4o3)c3ccccc23)cc1 | 14.1µM* | ?
O=c1[nH]cnc2c1sc1nc(C(F)F)cc(-c3ccccc3)c12 | i | -8.3%
C=C(C)COc1ccc(-c2nc(N)nc(C)c2Oc2ccccc2OC)c(O)c1 | -6.2% | -23.3%
CCOC(=O)c1ccc(CN2C(=O)c3ccccc3S2(=O)=O)cc1 | -1.9% | -21.2%
Cc1cccc(OC(C)C(=O)Nc2ccc(N3CCCCC3)cc2)c1 (stereo not given) | i | -15.1%
COc1ccc(N(C(=O)c2cc3ccccc3oc2=O)C2C=CS(=O)(=O)C2)cc1 (stereo not given) | -20.2% | -9.2%
N#Cc1ccc(NC(=O)COC(=O)CNC(=O)C2CCCCC2)cc1 | i | -11.7%
CCN1C[C@]2(COC)CC[C@H](O)[C@@]34C5C[C@@H]6[C@@H](OC)C[C@@](O)(C5[C@H]6O)[C@](O)([C@@H](OC)C23)[C@@H]14 (stereo not given in full) | -10.4% | -8.3%

The list goes on:
compound | VACV mCherry inh | Vaccinia Venus
COc1cc(C(=O)NCC(=O)NC(C)c2ccc(-n3ccnc3)cc2)cc(OC)c1OC (stereo not given) | -15.0% | -0.3%
CN(CC(=O)NCCN1CCN(c2ccccc2)CC1)S(=O)(=O)c1ccc2c(c1)CCC(=O)N2 | i | -8.6%
O=C(NC1CCCc2ccccc21)C1CCCN(S(=O)(=O)c2cnc[nH]2)C1 (stereo not given) | 11.0% | -6.7%
O=C(c1ccc(C(F)(F)F)cc1)C1CCCN(C(=O)CCc2ccncc2)C1 (stereo not given) | -1.0% | -15.8%
O=C(CCC(=O)N1CCSc2ccccc21)NCc1ccccc1Cl | -8.1% | -11.8%
O=C(CSc1nnc2c(Cl)cc(Cl)cn12)N1CCN(c2ccc(F)cc2)CC1 | -3.5% | -9.8%
C=CCn1c(O)c(N=NC(=O)c2ccccc2NS(=O)(=O)c2cccs2)c2ccccc21 | -9.2% | -13.3%

Single records, as listed above.
CN(CC(=O)NCCN1CCN(c2ccccc2)CC1)S(=O)(=O)c1ccc2c(c1)CCC(=O)N2 is listed as VACV mCherry inh: i; Vaccinia Venus: -8.6%
COc1cc(C(=O)NCC(=O)NC(C)c2ccc(-n3ccnc3)cc2)cc(OC)c1OC (stereo not given) is listed as VACV mCherry inh: -15.0%; Vaccinia Venus: -0.3%

Assay outcomes (PubChem)

Outcome played no part in choosing rows. Share with any hit: about 0.82%.
